Screening data from PubChem BioAssay.
KCNQ2 enhance = potentiators of rat KCNQ2 potassium channel; AID 2239; B-score at 10 µM; 0.54% of 310,000 active; CHO-K1 KCNQ2, FluxOR thallium flux fluorescence; hits give high values;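 active means fluorescence ratio B-score at least 3 SD of library B-scores, with initial fluorescence B-score within 3 SD, cut at about 5.3 in these data; same plate scores as AID 2156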;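 further: B-score of peak minus minimum over baseline fluorescence ratio after K+ and Tl+ stimulus; positive B-score means potentiation of KCNQ2 with more thallium influx and brighter signal; only the inactives scoring about 0 or higher are listed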
Target sequence (O88943 whole entry, looked up): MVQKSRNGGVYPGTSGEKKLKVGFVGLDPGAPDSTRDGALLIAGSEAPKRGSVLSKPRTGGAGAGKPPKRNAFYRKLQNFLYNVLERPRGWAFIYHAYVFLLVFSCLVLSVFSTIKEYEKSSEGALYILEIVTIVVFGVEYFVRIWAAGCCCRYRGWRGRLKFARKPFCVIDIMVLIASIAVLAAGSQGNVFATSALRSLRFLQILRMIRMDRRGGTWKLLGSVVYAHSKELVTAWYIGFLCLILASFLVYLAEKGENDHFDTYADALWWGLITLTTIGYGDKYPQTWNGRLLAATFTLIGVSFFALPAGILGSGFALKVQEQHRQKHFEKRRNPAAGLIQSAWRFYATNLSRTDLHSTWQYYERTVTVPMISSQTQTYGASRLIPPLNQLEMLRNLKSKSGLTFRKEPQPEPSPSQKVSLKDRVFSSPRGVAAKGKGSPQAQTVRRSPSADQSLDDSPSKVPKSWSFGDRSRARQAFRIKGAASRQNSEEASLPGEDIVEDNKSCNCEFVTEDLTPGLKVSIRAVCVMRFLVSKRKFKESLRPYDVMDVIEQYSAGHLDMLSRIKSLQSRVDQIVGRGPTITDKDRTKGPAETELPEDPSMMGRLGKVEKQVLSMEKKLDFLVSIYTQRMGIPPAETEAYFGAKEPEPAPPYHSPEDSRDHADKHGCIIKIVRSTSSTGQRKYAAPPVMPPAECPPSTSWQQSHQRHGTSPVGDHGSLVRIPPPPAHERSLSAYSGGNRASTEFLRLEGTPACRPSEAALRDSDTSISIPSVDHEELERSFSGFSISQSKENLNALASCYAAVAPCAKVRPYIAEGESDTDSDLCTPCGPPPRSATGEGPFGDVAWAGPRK
KCNQ2 enhance baseline = further read-out of KCNQ2 enhance, marked with its call; B-score; compound at 10 µM; measured here: initial fluorescence intensity artifact check;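 brightness before thallium and not channel activity; 0 = typical well and far values either way flag optical interference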
Active calls of the source: *. This is a subset; the hit share may differ from the screen's.

KCNQ2 enhance	KCNQ2 enhance baseline	compound
0.87	-0.38	Cc1cccc(C)c1NC(=O)CSc1nnc(-c2ccncc2)n1Cc1ccco1
0.21	1.1	O=C(O)c1ccc(Nc2nc(-c3ccc([N+](=O)[O-])cc3)nc3ccccc23)cc1
0.43	0.01	O=c1c(F)cn(C2CCCO2)c(=O)n1Cc1ccc(Cl)cc1 (configuration not stated)
0.44	1.1	COC(Cn1c(-c2cccc(S(=O)(=O)N(C)C)c2)n[nH]c1=S)OC
1.3	-0.29	Cc1cc(NC(=O)c2cc(CC(C)C)on2)no1
0.84	-2.1	CCOC(=O)c1c(NC(=O)N/N=C/c2ccccc2OCC)sc(C(C)=O)c1C
2.5	-0.62	O=C(NC1CCN(S(=O)(=O)c2ccccc2)CC1)c1ccccc1
1.2	-0.6	O=C(O)CNS(=O)(=O)c1cc(Cl)c(Cl)cc1Cl
0.23	0.05	COc1ccc(OC)c(-n2c(-c3ccn[nH]3)n[nH]c2=S)c1
1.4	-0.33	CCCS(=O)(=O)N1CCC(C(=O)N2CCN(Cc3ccccc3)CC2)CC1
0.55	0.12	Cc1cc(O)c(C(=O)/C=C/c2ccccc2)c(=O)o1
1.1	0.31	CCN1CCN(CCCNC(=O)c2ccc3c(c2)NC(=O)c2ccccc2S3)CC1
0.02	-0.79	CC(C)(C)c1ccc(C(=O)Oc2ccc3c(c2)OCC3=O)cc1
0.26	-0.23	Cc1cccc2c1cnn2C(=O)CCC(=O)NC1CCCCC1
0.08	0.41	COc1ccc(NC(=O)C(=O)NCCCn2ccnc2)cc1
0.77	-0.37	CCOC(=O)/C(N)=C/c1ncc(C(F)(F)F)cc1Cl
0.32	1.9	COc1cccc(C(=O)NC2CCN(CC(=O)Nc3ccccc3Cl)CC2)c1
0.07	1.4	CCCCC(=O)Nc1ccc(C(=O)NNC(=O)CCCOc2ccc(Cl)cc2Cl)cc1
0.57	-0.15	Cc1cc(C(F)(F)F)c2c(N)c(C(=O)NC3CC3)sc2n1
0.88	-0.32	O=C(NC(=S)Nc1ccccn1)c1ccccc1
2.1	0.01	COc1ccc(C2NC(=O)N(C)C3=C2C(=O)CC(C)(C)C3)cc1OC (configuration not stated)
1.8	-0.42	O=C(Cc1ccccc1F)NCC(c1ccco1)N1CCCCC1 (configuration not stated)
0.6	-0.01	Nc1nonc1-c1nc2ccccc2n1CC(=O)O
1	0.01	Cc1ccc(S(C)(=O)=N/C=C2\C(=O)c3sccc3N(C)S2(=O)=O)cc1 (configuration not stated)
0.42	-0.14	Cc1c(Cl)cccc1NS(=O)(=O)c1cccc2nsnc12
0.23	-1.9	CCN1C(=NCC2CC2)N[C@@H](c2cccc(C(F)(F)F)c2)C(C(=O)OC)=C1C
2.1	-0.4	O=C(Nc1cc(Cl)ccc1N1CCOCC1)C1=COCCO1
1.7	0	Cc1ccc(NC(=O)C2CCN(S(=O)(=O)c3cccnc3)CC2)cc1C
0.38	0.16	Cc1[nH]c2ccccc2c1/C=N/NC(=O)CNC(=O)c1ccccc1
0.11	0.02	CCCCN1C(N)=NC[C@H]1Cc1ccc(O)cc1
2.6	-0.52	COc1ccc(NC(=O)/C=C/c2ccc(F)cc2)cn1
1.5	0.87	CCOc1ccc(C(=O)Nc2ccc3c(c2)OCCO3)cc1
2	2.6	O=Nc1[nH]c(=O)c(/C=C(\O)c2ccccc2)nc1NO
0.02	-0.38	COc1cc(C(=O)Nc2cccc(-c3nc4cc(C)ccc4o3)c2C)cc(OC)c1OC
0.7	1.4	CCCCn1c(N)c(N(CCC(C)C)C(=O)c2ccccc2C)c(=O)[nH]c1=O
0.51	-0.92	Cc1cc(C)c(S(=O)(=O)NCCCN2CCOCC2)cc1Br
1.6	-0.92	O=C(N/N=C/c1ccc(F)cc1)c1cccc(NC(=O)c2ccccc2Cl)c1
0.66	-0.11	CCn1c(NC)cc(=O)n(C)c1=O
0.43	-0.34	O=C(CSc1nnc(NC(=O)Cc2ccccc2)s1)NCc1ccco1
0.35	0.33	COC(=O)c1ccc(Sc2ccccc2NS(=O)(=O)c2ccc(C)cc2)nc1

15 successive entries out of the list so far:
KCNQ2 enhance	KCNQ2 enhance baseline	compound
0.23	-1.9	CCN1C(=NCC2CC2)N[C@@H](c2cccc(C(F)(F)F)c2)C(C(=O)OC)=C1C
2.1	-0.4	O=C(Nc1cc(Cl)ccc1N1CCOCC1)C1=COCCO1
1.7	0	Cc1ccc(NC(=O)C2CCN(S(=O)(=O)c3cccnc3)CC2)cc1C
0.38	0.16	Cc1[nH]c2ccccc2c1/C=N/NC(=O)CNC(=O)c1ccccc1
0.11	0.02	CCCCN1C(N)=NC[C@H]1Cc1ccc(O)cc1
2.6	-0.52	COc1ccc(NC(=O)/C=C/c2ccc(F)cc2)cn1
1.5	0.87	CCOc1ccc(C(=O)Nc2ccc3c(c2)OCCO3)cc1
2	2.6	O=Nc1[nH]c(=O)c(/C=C(\O)c2ccccc2)nc1NO
0.02	-0.38	COc1cc(C(=O)Nc2cccc(-c3nc4cc(C)ccc4o3)c2C)cc(OC)c1OC
0.7	1.4	CCCCn1c(N)c(N(CCC(C)C)C(=O)c2ccccc2C)c(=O)[nH]c1=O
0.51	-0.92	Cc1cc(C)c(S(=O)(=O)NCCCN2CCOCC2)cc1Br
1.6	-0.92	O=C(N/N=C/c1ccc(F)cc1)c1cccc(NC(=O)c2ccccc2Cl)c1
0.66	-0.11	CCn1c(NC)cc(=O)n(C)c1=O
0.43	-0.34	O=C(CSc1nnc(NC(=O)Cc2ccccc2)s1)NCc1ccco1
0.35	0.33	COC(=O)c1ccc(Sc2ccccc2NS(=O)(=O)c2ccc(C)cc2)nc1

Continuation.
KCNQ2 enhance	KCNQ2 enhance baseline	compound
1.9	0.04	CC1=CC(C)(C)n2c(O)c(N=NC(N)=S)c3c(C)c(C)cc1c32
0.42	-0.04	COc1ccc2nc(N3C(=O)CNC3=S)sc2c1
0.49	-0.01	O=C(CSc1nc(=O)n(CCCN2CCOCC2)c2c1CCCC2)Nc1cccc([N+](=O)[O-])c1
0.02	-1.2	Cc1ccc(NC(=O)N2CCCC2C(=O)Nc2ccc(-n3cnnn3)c(C)c2)cc1 (configuration not stated)
0.04	2	CCC(=O)n1nc(-c2ccco2)nc1N
0.02	-0.01	Cn1cc(CN2CCCC(C(=O)c3ccc(-c4ccccc4)cc3)C2)cn1 (configuration not stated)
0.87	0.28	Cc1ccccc1NC(=O)C(=O)NCCCN1CCCC1=O
0.28	-0.03	CCCCN(C)CCNC(=O)Cn1ncc2c(=O)oc3ccc(C)cc3c21
0.49	-0.55	Cc1ccccc1S(=O)(=O)c1c(C)cc(-c2ccccc2)[nH]c1=O
0.13	2.4	CCC/C=N/Nc1nnc(Cc2ccccc2)c(=O)[nH]1
0.07	1.6	O=C(CN1CCN(C2CCCCC2)CC1)Nc1ccc(Br)cc1
1.2	0.67	COc1ccccc1C(CNC(=O)CSc1ccc2ccccc2c1)N(C)C (configuration not stated)
0.06	-0.13	Cc1nc(NN)c2c3c(sc2n1)COC(C)(C)C3
0.01	1.1	O=[N+]([O-])c1ccccc1S(=O)(=O)Nc1nc2ccccc2s1
0.92	-0.78	O=C(O)c1ccc(N/N=C/c2ccc(OC(=O)c3ccccc3Cl)cc2)cc1
0.01	0.49	COc1ccc(C2/C(=C(/O)c3ccccc3)C(=O)C(=O)N2CCCN2CCOCC2)cc1 (configuration not stated)
1.8	0.1	COc1cccc(Nc2ncc(C(=O)O)c3ccccc23)c1
0.75	1.3	CN1CCN(CCCC(=O)c2ccc(F)cc2)CC1
0.01	-0.33	CCOC(=O)C(Cc1ccccc1)NC(C)=O (configuration not stated)
1	1.4	O=C(CSCc1ccco1)c1cccs1
0.3	1.7	Cc1ccc(S(=O)(=O)NCCSC(C)(C)C)cc1
12*	0.13*	CC(C)n1cc(NC(=O)c2cc(-c3ccccc3)on2)cn1
0.05	-2.7	Cc1ccc(N(C(=O)C(F)(F)F)C(C(=O)NC2CCCCC2)c2cccs2)cc1 (configuration not stated)
1	1	CCn1c(SCC(=O)Nc2cc(C(C)(C)C)nn2-c2ccccc2)nnc1-c1cccs1
0.37	-0.03	CCCC(CCC(=O)Nc1ccc(C(=O)OC)cc1)C(=O)O (configuration not stated)
1.2	-1.7	Cc1ccccc1/C=N/NC(=O)c1cccnc1
0.56	-2.6	Cc1cccc(NC(=S)N(Cc2ccc(Br)cc2)Cc2ccc(C(=O)O)cc2)c1
1.3	1.4	O=C(OCC(=O)N1CCOCC1)c1ccc(N2CCOCC2)c([N+](=O)[O-])c1
0.63	-1.4	N#Cc1ccc(-c2nc3ccccc3c(=O)n2O)cc1
0.14	-1.5	O=C(/C=C/c1ccc2c(c1)OCO2)Nc1nc2ccccc2s1
1.3	-0.28	O=C(CCc1ccccc1)NCc1ccccc1
0.45	-0.09	C/C(=N\NC(=O)C1(C)CC1(Br)Br)c1ccc(NC(=O)C2CCC2)cc1 (configuration not stated)
0.18	1.2	CCOCCn1c(CN(Cc2ccccc2)Cc2ccccc2)nc2c1c(=O)[nH]c(=O)n2C
0.73	-0.07	COc1ccccc1NC(=O)CCS(=O)(=O)c1cc2c(cc1Cl)NC(=O)CO2
0.1	-0.01	Cc1ccc(NC(=O)CSCC(=O)Nc2ccc(S(=O)(=O)N3CCCC3)cc2)cc1
0.19	1.3	Cc1cccc(N(C)C(=O)c2cc(S(=O)(=O)N3CCCCC3)c[nH]2)c1
0.24	2.1	CCN1C(=O)N[C@@H](c2ccccc2)[C@@H](C(=O)OC)[C@H]1C
0.12	2	CC1=C(C(N)=O)C(c2ccc(Cl)c(Cl)c2)n2ncnc2N1 (configuration not stated)
0.05	1.2	COC(=O)c1ccccc1NC(=O)NCC1CCCO1 (configuration not stated)
0.84	-0.21	COc1cc(-n2ccnc2SC)c(Cl)cc1Cl
0.06	0.64	Cc1cc(NCCCN2CCOCC2)n2nc(C)c(-c3ccccc3)c2n1
0.59	1	COc1cccc(NC(=O)Nc2nnc(CC(=O)NCc3ccccc3)s2)c1
0.76	-0.03	CC(Oc1cc2oc(=O)cc(-c3ccccc3)c2cc1Cl)C(=O)NCC1CCC(C(=O)O)CC1 (configuration not stated)
1.2	0.46	O=C(c1ccccc1)N1CCCCC(S(=O)(=O)c2ccccc2)C1=O (configuration not stated)
0.66	-0.19	NC(=O)Nc1ccc(C(=O)OCC(=O)NC2CCCCC2)cc1
0.82	-0.21	CCC(=O)c1ccccc1OCCCN1C(=O)NC(C)(C)C1=O
0.05	-0.42	Clc1ccc(Sc2cc(Cl)c(-c3ccccc3)nn2)cc1
1.8	0.35	CC1=C(C(=O)Nc2ccc(C(=O)NCCCN3CCCCC3)cc2)SCCO1
0.25	-0.04	Cc1ccccc1CN1CCN(CC(=O)NCc2ccco2)C1=O
1.1	1	O=C(Cn1c(=O)[nH]c2ccccc2c1=O)Nc1cccnc1
0.58	-0.86	Cc1ccc2c(CC(=O)NCCc3ccc(S(N)(=O)=O)cc3)coc2c1
2	1.1	Cc1c([N+](=O)[O-])c(C(=O)NC2CCCC2)nn1C
1.1	0.04	CCN(CC)S(=O)(=O)c1cccc(-c2nnc(C(=O)c3ccc(C(F)(F)F)cc3)o2)c1
0.13	1.2	C=Cc1ccc(C(=O)N2CCCC(CCC(=O)N3CCN(c4ccccn4)CC3)C2)cc1 (configuration not stated)
0.84	-1.4	O=C(Nc1nccs1)C12CC3CC(C1)CC(C(=O)Nc1nccs1)(C3)C2
0.32	0.02	Cc1nc(Nc2ccccc2F)c2nnn(Cc3ccccc3Cl)c2n1
1.1	-0.86	COCc1cc(C)nc(N2CCCCC2)c1C#N
0.22	-2	COc1ccccc1NC(=O)Cn1cnc2c1c(=O)n(C)c(=O)n2C
0.96	0.45	COc1cc(Cl)ccc1OCc1cc(C(=O)N2CCC(N(C)C)C2)no1 (configuration not stated)
3.9	0.19	Cc1ccc(C(C)NC(=O)c2ccc3c(c2)OCCO3)cc1C (configuration not stated)

Remaining list, next part
KCNQ2 enhance	KCNQ2 enhance baseline	compound
0.45	1.8	C=CCn1c(SCC(=O)c2cc(C)n(CC3CCCO3)c2C)nnc1-c1ccccc1 (configuration not stated)
0.64	0.92	CN(C)CCOC(c1ccccc1)c1ccccc1 (tested in a mixture with another compound)
0.97	0.29	Cn1c(SCC(=O)Nc2ccc(Cl)cc2)nnc1C1CC1
1.1	-0.85	CN1CCN(CCC(=O)N2c3ccccc3Sc3ccc(Cl)cc32)CC1
0.17	-1.9	CCN(CC)C(=O)c1ccc(S(=O)(=O)c2ccccc2)cc1
0.07	-1.9	Cc1no[n+]([O-])c1COc1cccc(/C=C2\N=C(c3ccccc3)OC2=O)c1
2.6	-0.02	CCOC(=O)C1=C(C)Nc2ccccc2N=C1N
0.52	0.48	CC(C)n1c(=S)[nH]c2ccccc2c1=O
1.8	-1.3	O=C(NCc1ccco1)/C(=C/c1ccc([N+](=O)[O-])cc1)NC(=O)c1ccco1
0.14	-1.3	O=C(Nc1ccc2oc(-c3cccnc3)nc2c1)c1ccc2c(c1)OCCO2
0.16	0.45	CCc1ccc(NC(=O)/C(C#N)=C\c2ccc(OC)c(C(=O)O)c2)cc1
0.56	-0.55	CCOC(=O)Cc1csc(NS(=O)(=O)c2cc(Cl)ccc2Cl)n1
1.8	0.62	O=S(=O)(NCC1CCCO1)c1ccc(-c2ccc(Cl)cc2)cc1 (configuration not stated)
2	-1.1	O=C(COC(=O)/C=C/c1ccc(Cl)cc1)NCCc1ccccc1
0.24	-0.71	Cc1ccc(C(=O)N2CCN(C3CCCCC3)CC2)s1
1.9	-1.1	CN1C(=O)c2ccccc2C(C(=O)O)C1c1cccc(Cl)c1 (configuration not stated)
0.04	-1.1	CC(=O)N1c2ccc(S(=O)(=O)NCC3CCC(C(=O)NCc4ccc(C)cc4)CC3)cc2CC1C (configuration not stated)
0.24	0.37	Cn1c(=O)c2c(nc(CN3CCN(c4ccccc4)CC3)n2CCN2CCOCC2)n(C)c1=O
1.7	-0.1	COc1cccc(CNC(=O)N2CCN(S(=O)(=O)c3ccc(C)cc3)CC2)c1
